Screening results: PubChem, Emory University Molecular Libraries Screening Center
Measles inh – inhibitors of measles virus growth in infected cells; infected Vero cells, GFP fluorescence, 64 h; active compounds read low; z-score (no concentration beside the values); actives 0.1% (n = 33,000);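 active = z-score under -3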;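 also: score is relative to mean and SD of the compound wells of a plate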
The depositor's hits bear a star. The list is partial; rates above refer to the full screens.

SMILES	Measles inh
Nc1ccccc1NCCOc1ccccc1	2.6
Nc1c(C(=O)NCCC2=CCCCC2)nnn1-c1ccc(OC(F)(F)F)cc1	-0.36
CCCCOC(=O)C1=C(C)NC(=O)NC1c1cccc(F)c1 (stereo unspecified)	1.3
CCC1Sc2ccccc2N(CC(=O)NCCN(CC)CC)C1=O (stereo unspecified)	-0.78
COc1ccccc1CNC(=O)c1cnc(Nc2ccccc2OC)c2ccccc12	0.76
CCN1C=CC(=Cc2cccc[n+]2C)c2ccccc21	-1.8
O=C(NC1CCCCC1)C1CCCN(S(=O)(=O)c2cccnc2)C1 (stereo unspecified)	0.68
Cc1cccc(C)c1NS(=O)(=O)c1ccc(NC(=O)c2ccc(C3SCC(=O)N3Cc3ccccc3)cc2)cc1 (stereo unspecified)	-1.2
c1ccc(-c2csc(NCc3ccco3)n2)cc1	-1.3
O=C1NC(c2ccc(F)cc2)C(C(=O)c2cccs2)C(O)(C(F)(F)F)N1 (stereo unspecified)	-0.64
COC(=O)c1c(-c2ccc(C)c(C)c2)csc1NC(=O)C1CCCCC1C(=O)O (stereo unspecified)	-0.36
CCCCCc1nc2ccc([N+](=O)[O-])cc2[nH]1	-0.36
COc1ccc(-c2nc(=S)c3c([nH]2)CCCC3)cc1	-0.97
COC(=O)C1=C(N)OC2=C(C(=O)CC(c3ccccc3)C2)C1c1cccs1 (stereo unspecified)	0.16
COc1ccc(-n2c(=O)c3ccccc3n(Cc3ccc(Cl)cc3)c2=O)cc1	-0.19
CN(C)c1ccc(-c2nc3ccccc3n2C)cc1	-0.4
CCCCOC(=O)C1=C(C)NC2=C(C(=O)CCC2)C1c1ccc(OCC)c(OC)c1 (stereo unspecified)	-0.14
COC(=O)C1C(=O)CC(C)(O)C(C(=O)OC)C1c1ccc(OC)cc1 (stereo unspecified)	-0.97
COc1cccc2sc(=NC(=O)c3ccc(S(=O)(=O)N4CCCCC4)cc3)n(C)c12	-0.19
CCOC(=O)c1c(CC(C)C)csc1N=CC1C(=O)c2ccccc2C1=O	0.33
Cc1cccc(-n2nc3c(c2NC(=O)c2cccc(C(F)(F)F)c2)CSC3)c1C	-0.09
COc1cc(OC)c2c(c1)C1C=CCC1C(c1ccc(C(=O)O)cc1)N2 (stereo unspecified)	-0.47
CC(N=Cc1ccc(O)cc1)C12CC3CC(CC(C3)C1)C2 (stereo unspecified)	-1.8
COc1ccc(C2/C(=C(\O)c3ccc(C)cc3)C(=O)C(=O)N2c2nnc(C)s2)cc1OC (stereo unspecified)	0.02
CCCn1c(=NC(=O)c2ccc(F)cc2)c(C(=O)OCC)cc2c(=O)n3ccccc3nc21	3.7

18 entries from above, in CSV form:
Structure,Measles inh
Nc1ccccc1NCCOc1ccccc1,2.6
Nc1c(C(=O)NCCC2=CCCCC2)nnn1-c1ccc(OC(F)(F)F)cc1,-0.36
CCCCOC(=O)C1=C(C)NC(=O)NC1c1cccc(F)c1 (stereo unspecified),1.3
CCC1Sc2ccccc2N(CC(=O)NCCN(CC)CC)C1=O (stereo unspecified),-0.78
COc1ccccc1CNC(=O)c1cnc(Nc2ccccc2OC)c2ccccc12,0.76
CCN1C=CC(=Cc2cccc[n+]2C)c2ccccc21,-1.8
O=C(NC1CCCCC1)C1CCCN(S(=O)(=O)c2cccnc2)C1 (stereo unspecified),0.68
Cc1cccc(C)c1NS(=O)(=O)c1ccc(NC(=O)c2ccc(C3SCC(=O)N3Cc3ccccc3)cc2)cc1 (stereo unspecified),-1.2
c1ccc(-c2csc(NCc3ccco3)n2)cc1,-1.3
O=C1NC(c2ccc(F)cc2)C(C(=O)c2cccs2)C(O)(C(F)(F)F)N1 (stereo unspecified),-0.64
COC(=O)c1c(-c2ccc(C)c(C)c2)csc1NC(=O)C1CCCCC1C(=O)O (stereo unspecified),-0.36
CCCCCc1nc2ccc([N+](=O)[O-])cc2[nH]1,-0.36
COc1ccc(-c2nc(=S)c3c([nH]2)CCCC3)cc1,-0.97
COC(=O)C1=C(N)OC2=C(C(=O)CC(c3ccccc3)C2)C1c1cccs1 (stereo unspecified),0.16
COc1ccc(-n2c(=O)c3ccccc3n(Cc3ccc(Cl)cc3)c2=O)cc1,-0.19
CN(C)c1ccc(-c2nc3ccccc3n2C)cc1,-0.4
CCCCOC(=O)C1=C(C)NC2=C(C(=O)CCC2)C1c1ccc(OCC)c(OC)c1 (stereo unspecified),-0.14
COC(=O)C1C(=O)CC(C)(O)C(C(=O)OC)C1c1ccc(OC)cc1 (stereo unspecified),-0.97

Continuation:
SMILES	Measles inh
COc1cccc(NC(=O)CN(C)S(=O)(=O)c2ccc(Br)s2)c1	-0.69
Cc1cccc(-n2ncc3c(Nc4cc(C)ccc4C)ncnc32)c1	0.24
Cc1c(C(=O)O)oc2ccc(S(=O)(=O)N3CCOCC3)cc12	-0.62
Cc1ccc(Nc2nc(-c3cc4cc([N+](=O)[O-])ccc4oc3=O)cs2)cc1	0.34
COc1cc2ccccc2cc1C(=O)Nc1nnc(C23CC4CC(CC(C4)C2)C3)s1	-0.33
CSc1nnc2c(n1)OC(c1cccc(C)n1)N(C(C)=O)c1ccccc1-2 (stereo unspecified)	0.11
Cc1ccc(C23CC4CC(CC(C(=O)NC5=NCCS5)(C4)C2)C3)cc1	0.18
COC(=O)c1c(NC(=O)COc2ccc(Cl)cc2C)sc2c1CCC2	0.9
Cc1ccc(Nc2c(-c3ccc(O)cc3)nc3cc(C)ccn23)cc1	-0.81
CCOC(=O)c1sc2nc3c(cc2c1N)C(=O)CC(C)(C)C3	0.38
Cc1c(C)n(C(=O)CSc2n[nH]c(-c3ccccc3)n2)c2ccccc12	0.9
CC(=O)c1cccc(N2C(=O)c3ccc(C(=O)OCC(=O)c4cccc([N+](=O)[O-])c4)cc3C2=O)c1	-0.12
Cc1ccc(C2CC(C(F)(F)F)n3nc(C(=O)N4CCCCC4)c(Cl)c3N2)cc1 (stereo unspecified)	-1.3
Cc1cccc(NC(=O)c2cc3nc(-c4ccc(Br)cc4)cc(C(F)(F)F)n3n2)n1	-0.57
O=S(=O)(c1ccc(F)cc1)N1CCC(N2CCN(c3ccccc3)CC2)CC1	2.9
CCOc1ccc(NC(=O)CSc2nc3ccsc3c(=O)n2Cc2ccccn2)cc1	-1.1
O=C(NCc1ccccc1Cl)c1cc(-c2cccnc2)nc2ccccc12	1.1
COc1ccccc1CNC(=O)c1cnn2c(C)c(Cc3ccccc3F)c(C)nc12	-1.5
O=C(NCc1ccccc1)c1ccc2c(=O)n(-c3ccc(F)cc3)c(=S)[nH]c2c1	-0.43
CCC(=O)N1CCN(S(=O)(=O)c2ccc(C)cc2)C1c1ccc(N(C)C)cc1 (stereo unspecified)	-0.61
Cc1nn(C(=O)C2CCCN2S(=O)(=O)c2ccc(Cl)cc2)c(C)c1Sc1ccc(Cl)cc1 (stereo unspecified)	-0.84
CC1(C)CC(=O)C=C(Nc2ccc3c(c2)OCCO3)C1	1.4
CC1=C(C(=O)OCc2ccccc2)C(c2ccc(C(C)(C)C)cc2)N2C(=O)C(C)SC2=N1 (stereo unspecified)	-1.2
CCOC(=O)c1[nH]c(C)c(CNc2cccc(OC)c2)c1C	1.2
CC1CC2(CC(C)OC2=O)C(=O)O1 (stereo unspecified)	-0.47
(cont.)
SMILES	Measles inh
O=C(NCc1cccnc1)c1ccc(S(=O)(=O)c2ccccc2Cl)c([N+](=O)[O-])c1	-0.16
O=C(CN1C(=O)c2ccccc2C1=O)Nc1cccc(C(F)(F)F)c1	-0.35
COc1ccc2nc3oc(C(=O)Nc4ccc(Oc5ccccc5)cc4)cc3cc2c1	0.68
CCOc1ccccc1N1C(=O)C2C(c3ccc(C)cc3)OC3(C(=O)c4ccccc4C3=O)C2C1=O (stereo unspecified)	0.06
CCOC(=O)C1=C(C)NC(=O)CC1c1ccccc1I (stereo unspecified)	-0.5
O=C(c1ccc(-n2c(=S)[nH]c3ccccc3c2=O)cc1)N1CCN(C2CCCCC2)CC1	-0.06
Cc1ccc(-c2nc(S(=O)(=O)c3ccc(Br)cc3)c(SCC(=O)NCC3CCCO3)o2)cc1 (stereo unspecified)	0.52
CCC(=O)Nc1nc(C)c(-c2csc(Nc3ccccc3OC)n2)s1	-0.48
Cc1ccccc1CSCCC(=O)NC1CCCCCC1	1.8
COc1ccc(OC)c(Nc2ccc(C(=O)O)cc2[N+](=O)[O-])c1	-0.13
O=C(CCN1C(=O)c2ccccc2C1=O)Oc1ccc2c3c(c(=O)oc2c1)CCC3	1.8
Cc1ccc(NC(=O)CSc2nnc(-c3cccnc3)n2Cc2ccccc2)c(C)c1	-1.1
Cc1c(C(=O)NCc2ccc(F)cc2)sc2ncn(CC(=O)N3CCOCC3)c(=O)c12	0.32
COc1ccc2nc(/N=C(\N)NC(=O)c3ccc(F)cc3)nc(C)c2c1	0.47
CCOc1ccc(-n2nc(C(=O)Nc3ccc(Oc4ccccc4)cc3)c3ccccc3c2=O)cc1	-0.73
CC(C)N1C(=O)CCC1C(=O)N(CCc1ccccc1)Cc1ccccc1 (stereo unspecified)	-0.43
COc1ccc(NC(=O)c2ccc(Br)cc2)c2ncccc12	0.49
CCCN1C(=O)c2ccccc2NC1c1ccc(OC)c(COc2cccc(OC)c2)c1 (stereo unspecified)	-0.87
CCC(=O)N1N=C(c2ccc(NS(C)(=O)=O)cc2)CC1c1ccc(C)cc1 (stereo unspecified)	-1.3
Clc1ccccc1CNc1ncnc2c1c(-c1ccccc1)cn2-c1ccccc1	0.75
O=c1oc2ccccc2cc1-c1csc(Nc2cccc3ccccc23)n1	0.94
O=C(Oc1ccc(C(=S)N2CCCCC2)cc1)c1ccccc1	-1.3
Cc1cc2c(c(=O)[nH]1)C(=O)OC2	0.7
CC(=O)OC1CCS(=O)(=O)C1 (stereo unspecified)	-1.3
COc1cccc(C2C(C(=O)OCC(C)C)=C(C)NC3=C2C(=O)CC(c2ccc(Cl)cc2)C3)c1OC (stereo unspecified)	-0.53
Additional compounds follow.
SMILES	Measles inh
Cc1cnc(-c2ccc(C)c([N+](=O)[O-])c2)c(C)c1	0.28
Cc1ccc(OCC(=O)Nc2ccc(C(=O)OC(C)C)cc2)c(Br)c1	-1.6
CCOC(=O)CSc1nc2c(c(=O)n1CC1CCCC1)C1(CCCC1)Cc1ccccc1-2	-2.2
CCOC(=O)C(C)Sc1ncnc2sc3c(c12)CCCC3 (stereo unspecified)	-0.04
Cc1nn(C(=O)c2cc([N+](=O)[O-])ccc2Cl)c(C)c1Br	-0.11
O=C(Cn1ccnc1)Nc1nc2ccccc2s1	0.42
O=C(CS(=O)(=O)c1c[nH]c2ccccc12)N1CCN(c2ccccc2)CC1	0.09
CCOC(=O)c1sc2ncnc(Nc3ccc(OC)c(OC)c3)c2c1C	-0.78
COC(=O)C1C(=O)C2=C(CC1C)NC(C)=C(C(=O)OC1CCCCC1)C2c1ccc(C)c([N+](=O)[O-])c1 (stereo unspecified)	-0.3
CCOc1ccc(CCn2c(-c3ccccc3)cn3c4c(=O)n(C)c(=O)n(C)c4nc23)cc1OCC	0.59
O=C(Nc1nn[nH]n1)C12CC3CC(CC(C3)C1)C2	0.94
COC(=O)c1ccc(OCC2c3cc(OC)c(OC)cc3CCN2C(=O)c2ccccc2Br)cc1 (stereo unspecified)	-0.67
Cc1ccc(NC(=O)CCC(=O)OC2CCC(C(C)(C)C)CC2)cc1 (stereo unspecified)	-0.03
O=C(CCc1ccccc1)NC1CCSC1=O (stereo unspecified)	0.12
COc1cccc(OC)c1OCC(O)CN1CCN(c2ccccc2F)CC1 (stereo unspecified)	0.61
CC1CCCN(C(=O)Cc2c(C(=O)O)[nH]c3ccccc23)C1 (stereo unspecified)	-0.28
COC(=O)c1cc(NS(=O)(=O)c2ccc3c(c2)c(=O)n(C)c(=O)n3C)cc(C(=O)OC)c1	0.73
O=C(CCN1C(=O)c2ccccc2C1=O)Nc1ccccc1F	0.35
CCN1C(=O)CC(C(=O)Nc2cccc(C(=O)O)c2)SC1=Nc1ccc(Cl)cc1 (stereo unspecified)	-0.62
CCCCc1cc(=O)oc2cc3occ(-c4ccccc4)c3cc12	-0.53
CN(C)Cc1c(O)ccc2c(=O)c(-c3ccccc3)c(C(F)(F)F)oc12	-0.11
O=c1[nH]c(SCc2ccc(Cl)cc2)nc2c1cnn2-c1ccc(F)cc1	0.28
CCOC(=O)c1sc(NC(=O)c2ccc(Oc3ccccc3)cc2)nc1C	-1.1
COc1cc2c(cc1OC)C1C(C(=O)N3CCC(N4CCCCC4)CC3)c3ccccc3C(=O)N1CC2 (stereo unspecified)	1.1
COc1ccc(C2C=C(Nc3ccccc3)C(=O)N2c2ccccc2)cc1OC (stereo unspecified)	-0.79

As entered above.
For Measles inh, COc1ccc(OC)c(Nc2ccc(C(=O)O)cc2[N+](=O)[O-])c1 has -0.13
For Measles inh, Nc1ccccc1NCCOc1ccccc1 has 2.6

Next part.
SMILES	Measles inh
COc1cccc(C(=O)NCc2n[nH]c(=S)n2-c2ccccc2)c1	0.15
O=C(CSc1nc(-c2ccccc2)c(-c2ccccc2)o1)Nc1nccs1	1.1
O=C(NC12CC3CC(CC(C3)C1)C2)c1ccccc1Oc1ccc(C(F)(F)F)cc1[N+](=O)[O-]	-1.6
CC1CCCC(NC(=O)CCn2nc(-c3ccc(Cl)cc3)ccc2=O)C1C (stereo unspecified)	-1.7
COCCn1c(=O)[nH]c2cc(C(=O)Nc3ccc(NC(C)=O)cc3)ccc2c1=O	0.86
COc1ccc(C2C(C(=O)N3CCCCCC3)CCC(=O)N2c2cc(OC)c(OC)c(OC)c2)cc1 (stereo unspecified)	0.12
CCc1cc(C)cc(OCC(O)Cn2c(C)[n+](C)c3ccccc32)c1 (stereo unspecified)	-0.54
Cc1ccc(NC(=O)COC(=O)CSC(=O)c2ccccc2)cc1	-0.64
O=C(CN1CCCCC1)N1N=C(c2cccs2)CC1c1ccc(F)cc1 (stereo unspecified)	-0.28
COc1cc(C(=O)NCc2nc3ccccc3n2Cc2ccccc2C)cc(OC)c1OC	-0.77
CC(C)Cn1c(N(C)C)nc2c1c(=O)[nH]c(=O)n2C	0.82
O=C(Nc1cc2cccc([N+](=O)[O-])c2oc1=O)c1ccc(-c2ccccc2)cc1	-0.81
CN(C)C(=O)c1c(NC(=O)c2ccccc2F)sc2c1CCC(C(C)(C)C)C2 (stereo unspecified)	-0.35
Cc1ccc(C)c(N2CCN(C(=O)c3ccc(SCCN4CCOCC4)c([N+](=O)[O-])c3)CC2)c1	-0.33
CC1CCCN(C(C(=O)NC2CCCCC2)c2cc3c(cc2[N+](=O)[O-])OCO3)C1 (stereo unspecified)	-0.72
O=c1c2ccccc2c(-c2ccccc2)nn1-c1cc([N+](=O)[O-])ccc1N1CCOCC1	0.31
